# Screens from PubChem BioAssay.
# A1 apoptosis 2 = compounds inhibiting A1, read as caspase activation; 24,000 tested, under 10 active; MEF A1-2A-BIM cells, caspase-Glo luminescence, 3 h; percent of clofoctol response, DMSO zero; AID 2465; caspase activation, % (no concentration beside the values); in the data active means caspase activation above about 5.9%;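 further: wells of about 30 µL received 50 nL stock; the first replicate is given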
#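 Test system – A1-2A-BIM-expressing MEF cells · Input – 2500 cells/well · Medium – RPMI-1640 growth medium with 10% FBS · Compound dosing – 50 nL pinned compound · Timing – 3 h compound exposure at 37 °C · Technique – Caspase-Glo luminescence (DEVD substrate) · Evaluation – Caspase-3/7 activity from luminescence increase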
# Numbers without * were called inactive. Only part of the results is shown, so the mix of outcomes need not match the whole.
SMILES,A1 apoptosis 2
C[C@H]1CN([C@@H](C)CO)C(=O)Cc2cc(NS(=O)(=O)c3cccs3)ccc2O[C@@H]1CN(C)S(=O)(=O)c1ccccc1,-0.7
C[C@H]1CN([C@@H](C)CO)C(=O)Cc2cc(NC(=O)CCN3CCOCC3)ccc2O[C@H]1CN(C)Cc1ccc(Oc2ccccc2)cc1,1.3
C[C@H](CO)N1C[C@H](C)[C@H](CN(C)CC2CC2)Oc2ccc(NS(=O)(=O)c3ccc(Cl)cc3)cc2C1=O,1.6
COc1ccc(S(=O)(=O)N(C)C[C@H]2Oc3ccc(NC(=O)Cc4cn(C)c5ccccc45)cc3CC(=O)N([C@@H](C)CO)C[C@H]2C)cc1,2.6
C[C@H](CO)N1C[C@H](C)[C@@H](CN(C)C(=O)Cc2ccccc2)OCCCC[C@H](C)Oc2ccc(NC(=O)Nc3cccc4ccccc34)cc2C1=O,1.2
CC(C)=CCC[C@@H](C)C/C=N/NC(=O)CCCCCCC(=O)Nc1ccccc1O,-0.2
CNC[C@H]1Oc2ccc(NC(=O)Nc3ccc(F)cc3)cc2C(=O)N([C@@H](C)CO)C[C@H]1C,0.0
COc1ccc(S(=O)(=O)Nc2ccc3c(c2)CC(=O)N([C@H](C)CO)C[C@@H](C)[C@H](CN(C)S(=O)(=O)c2c(C)noc2C)O3)cc1,-0.9
C[C@H](CO)N1C[C@H](C)[C@H](CN(C)C(=O)NC2CCCC2)Oc2ncc(Br)cc2C1=O,0.8
C[C@@H]1CCCCO[C@@H](CN(C)Cc2ccncc2)[C@@H](C)CN([C@@H](C)CO)C(=O)c2cc(NC(=O)CCC(F)(F)F)ccc2O1,-0.7
Cc1ccc(S(=O)(=O)N(C)C[C@H]2Oc3ccc(NC(=O)CCN4CCOCC4)cc3C(=O)N([C@H](C)CO)C[C@H]2C)cc1,-0.2
C[C@@H]1CN([C@@H](C)CO)C(=O)c2cc(NS(=O)(=O)c3ccccc3)ccc2O[C@@H](C)CCCCO[C@@H]1CN(C)Cc1ccc2c(c1)OCO2,-0.5
C[C@H]1CN([C@@H](C)CO)C(=O)c2cc(NS(=O)(=O)c3ccc(F)cc3)ccc2O[C@@H]1CN(C)Cc1ccc(C(=O)Nc2ccccc2N)cc1,0.9
C[C@@H]1CN([C@H](C)CO)C(=O)c2cc(NS(=O)(=O)c3ccc(Cl)cc3)ccc2O[C@@H]1CN(C)S(=O)(=O)c1ccc(F)cc1,0.1
C[C@H](CO)N1C[C@H](C)[C@@H](CN(C)C(=O)NC2CCCCC2)Oc2c(NS(=O)(=O)c3cn(C)cn3)cccc2C1=O,0.6

# Exported field by field: part of the list above
> C[C@H](CO)N1C[C@H](C)[C@@H](CN(C)C(=O)Cc2ccccc2)OCCCC[C@H](C)Oc2ccc(NC(=O)Nc3cccc4ccccc34)cc2C1=O
  A1 apoptosis 2 = 1.2
> CC(C)=CCC[C@@H](C)C/C=N/NC(=O)CCCCCCC(=O)Nc1ccccc1O
  A1 apoptosis 2 = -0.2
> CNC[C@H]1Oc2ccc(NC(=O)Nc3ccc(F)cc3)cc2C(=O)N([C@@H](C)CO)C[C@H]1C
  A1 apoptosis 2 = 0.0
> COc1ccc(S(=O)(=O)Nc2ccc3c(c2)CC(=O)N([C@H](C)CO)C[C@@H](C)[C@H](CN(C)S(=O)(=O)c2c(C)noc2C)O3)cc1
  A1 apoptosis 2 = -0.9

# Further entries.
SMILES,A1 apoptosis 2
COc1ccc(CN(C)C[C@H]2Oc3c(NS(=O)(=O)c4cccs4)cccc3C(=O)N([C@H](C)CO)C[C@H]2C)cc1,-0.3
C[C@H]1CN([C@@H](C)CO)C(=O)c2cc(NC(=O)Nc3ccccc3)ccc2O[C@H]1CN(C)C(=O)NC1CCCCC1,-0.7
CC(C)NC(=O)Nc1cccc2c1O[C@@H](CN(C)S(=O)(=O)c1ccc(F)cc1)[C@H](C)CN([C@H](C)CO)C2=O,0.1
Cc1cccc(CN(C)C[C@@H]2OCc3cn(nn3)CCCC(=O)N([C@H](C)CO)C[C@@H]2C)c1,-0.3
Cc1ccc(S(=O)(=O)N(C)C[C@@H]2OCCCC[C@@H](C)Oc3ccc(NC(=O)NC(C)C)cc3C(=O)N([C@H](C)CO)C[C@@H]2C)cc1,-1.8
C[C@@H]1CN([C@@H](C)CO)C(=O)c2cc(NC(=O)NC3CCCCC3)ccc2O[C@H]1CN(C)C,0.4
C[C@H](CO)N1C[C@H](C)[C@H](CN(C)S(=O)(=O)c2cccs2)Oc2c(NC(=O)Nc3cccc4ccccc34)cccc2C1=O,0.5
C[C@@H]1CCCCO[C@H](CN(C)C(=O)Nc2ccc(C(F)(F)F)cc2)[C@H](C)CN([C@@H](C)CO)C(=O)c2cc(NC(=O)NC3CCCCC3)ccc2O1,-0.7
C[C@@H]1CCCCO[C@H](CN(C)Cc2ccncc2)[C@@H](C)CN([C@@H](C)CO)C(=O)c2cc(NS(=O)(=O)c3cccs3)ccc2O1,0.3
CC(C)NC(=O)Nc1ccc2c(c1)C(=O)N([C@@H](C)CO)C[C@@H](C)[C@@H](CN(C)S(=O)(=O)c1cccs1)OCCCC[C@H](C)O2,-0.1
CC(C)NC(=O)N(C)C[C@H]1OCCCC[C@H](C)Oc2ccc(NC(=O)C3CCCCC3)cc2C(=O)N([C@@H](C)CO)C[C@@H]1C,0.3
COc1ccc(NC(=O)Nc2ccc3c(c2)C(=O)N([C@H](C)CO)C[C@H](C)[C@@H](CN(C)C(=O)Nc2ccc4c(c2)OCO4)OCCCC[C@H](C)O3)cc1,0.4
C[C@H]1CN([C@@H](C)CO)C(=O)c2cc(NC(=O)Cc3cn(C)c4ccccc34)ccc2O[C@H]1CN(C)C(=O)Nc1ccccc1,-2.0
C[C@@H]1CN([C@H](C)CO)C(=O)c2cccc(NC(=O)Nc3ccc(F)cc3)c2O[C@H]1CN(C)Cc1ccccc1,-0.7
Cc1ccc(S(=O)(=O)Nc2ccc3c(c2)C(=O)N([C@@H](C)CO)C[C@@H](C)[C@@H](CN(C)C(=O)NC(C)C)OCCCC[C@H](C)O3)cc1,0.1
C[C@@H]1CN([C@H](C)CO)C(=O)c2cc(NS(=O)(=O)c3ccccc3)ccc2O[C@@H]1CN(C)S(=O)(=O)c1ccccc1,-1.7
C[C@H]1CCCCO[C@H](CN(C)C(=O)Nc2ccccc2)[C@@H](C)CN([C@@H](C)CO)C(=O)c2cc(NC(=O)CCC(F)(F)F)ccc2O1,0.4
C[C@@H]1CCCCO[C@@H](CN(C)Cc2ccc(Cl)c(Cl)c2)[C@H](C)CN([C@@H](C)CO)C(=O)c2cc(N(C)C)ccc2O1,1.1
C[C@H](CO)N1C[C@H](C)[C@H](CN(C)Cc2ccncc2)Oc2ccc(NC(=O)C3CC3)cc2CC1=O,-0.7
C[C@@H]1CCCCO[C@@H](CN(C)C(=O)C2CCCCC2)[C@@H](C)CN([C@@H](C)CO)C(=O)c2cc(NS(=O)(=O)c3cn(C)cn3)ccc2O1,-2.2
C[C@H]1CN([C@@H](C)CO)C(=O)c2cccc(NC(=O)c3ccc(-c4nccs4)cc3)c2O[C@H]1CN(C)S(=O)(=O)c1ccc(F)cc1,-0.3
Cc1ccc(S(=O)(=O)Nc2ccc3c(c2)CC(=O)N([C@H](C)CO)C[C@@H](C)[C@@H](CN(C)C(=O)Nc2c(C)noc2C)O3)cc1,-0.3
C[C@@H]1CCCCO[C@H](CN(C)S(=O)(=O)c2cccs2)[C@@H](C)CN([C@@H](C)CO)C(=O)c2cc(NC(=O)Nc3ccccc3)ccc2O1,0.5
Cc1noc(C)c1NC(=O)Nc1ccc2c(c1)C(=O)N([C@@H](C)CO)C[C@@H](C)[C@H](CN(C)C)O2,0.8
Cc1noc(C)c1NC(=O)N(C)C[C@@H]1Oc2ccc(NC(=O)Cc3cn(C)c4ccccc34)cc2CC(=O)N([C@H](C)CO)C[C@@H]1C,-0.8
C[C@@H]1CN([C@@H](C)CO)C(=O)c2cc(NS(=O)(=O)c3cn(C)cn3)ccc2O[C@@H]1CN(C)C,0.0
Cc1ccc(S(=O)(=O)Nc2ccc3c(c2)C(=O)N([C@@H](C)CO)C[C@H](C)[C@@H](CN(C)S(=O)(=O)c2ccc(C)cc2)OCCCC[C@@H](C)O3)cc1,-0.9
C[C@H](CO)N1C[C@H](C)[C@@H](CN(C)C(=O)NC2CCCCC2)Oc2ccc(NC(=O)Cn3cnnn3)cc2CC1=O,0.6
C[C@H]1CN([C@@H](C)CO)C(=O)Cc2cc(NS(=O)(=O)c3cn(C)cn3)ccc2O[C@H]1CN(C)C(=O)Nc1ccc(C(F)(F)F)cc1,0.3
C[C@@H]1CN([C@@H](C)CO)C(=O)Cc2cc(NC(=O)CCC(F)(F)F)ccc2O[C@@H]1CN(C)C,0.0

# Single values from the list.
# For A1 apoptosis 2, `C[C@H]1CCCCO[C@H](CN(C)C(=O)Nc2ccccc2)[C@@H](C)CN([C@@H](C)CO)C(=O)c2cc(NC(=O)CCC(F)(F)F)ccc2O1` is entered as 0.4
# For A1 apoptosis 2, `COc1ccc(CN(C)C[C@H]2Oc3c(NS(=O)(=O)c4cccs4)cccc3C(=O)N([C@H](C)CO)C[C@H]2C)cc1` is entered as -0.3

# 3 entries from above, set out differently.
SMILES	A1 apoptosis 2
C[C@H]1CN([C@@H](C)CO)C(=O)c2cccc(NC(=O)c3ccc(-c4nccs4)cc3)c2O[C@H]1CN(C)S(=O)(=O)c1ccc(F)cc1	-0.3
C[C@@H]1CCCCO[C@H](CN(C)S(=O)(=O)c2cccs2)[C@@H](C)CN([C@@H](C)CO)C(=O)c2cc(NC(=O)Nc3ccccc3)ccc2O1	0.5
C[C@H](CO)N1C[C@H](C)[C@@H](CN(C)C(=O)NC2CCCCC2)Oc2ccc(NC(=O)Cn3cnnn3)cc2CC1=O	0.6

# Later entries
SMILES,A1 apoptosis 2
C[C@H](CO)N1C[C@H](C)[C@@H](CN(C)C(=O)Nc2cccc3ccccc23)Oc2ccc(NC(=O)Cc3ccccc3)cc2CC1=O,-1.1
Cc1cc(C(=O)Nc2cccc3c2O[C@H](CN(C)S(=O)(=O)c2cccs2)[C@@H](C)CN([C@H](C)CO)C3=O)n(C)n1,0.9
Cc1noc(C)c1S(=O)(=O)Nc1ccc2c(c1)C(=O)N([C@@H](C)CO)C[C@H](C)[C@H](CN(C)S(=O)(=O)c1ccccc1)O2,0.0
CNC[C@@H]1Oc2c(NC(=O)Nc3c(C)noc3C)cccc2C(=O)N([C@@H](C)CO)C[C@H]1C,-0.7
C[C@H](CO)N1C[C@H](C)[C@@H](CN(C)C(=O)Nc2ccc3c(c2)OCO3)OCCCC[C@H](C)Oc2ccc(NC(=O)c3ccccc3)cc2C1=O,-0.5
Cc1noc(C)c1NC(=O)Nc1cccc2c1O[C@@H](CN(C)C)[C@@H](C)CN([C@H](C)CO)C2=O,-1.6
C[C@H](CO)N1C[C@H](C)[C@H](CN(C)C(=O)Nc2ccccc2)Oc2ccc(NC(=O)NC3CCCCC3)cc2C1=O,-2.2
C[C@@H]1CN([C@H](C)CO)C(=O)c2cc(NC(=O)C3CCCCC3)ccc2O[C@@H](C)CCCCO[C@H]1CN(C)S(=O)(=O)c1ccc(F)cc1,0.3
C[C@@H]1CN([C@@H](C)CO)C(=O)c2cccc(NC(=O)CCCCCC(=O)Nc3ccccc3N)c2O[C@@H]1CN(C)S(=O)(=O)c1ccc(Cl)cc1,0.5
C[C@H](CO)N1C[C@H](C)[C@H](CN(C)CC2CC2)Oc2c(NC(=O)CCCCCC(=O)Nc3ccccc3N)cccc2C1=O,-0.4
C[C@@H]1CN([C@H](C)CO)C(=O)c2cccc(NC(=O)C3CCOCC3)c2O[C@H]1CN(C)C(=O)Nc1ccc2c(c1)OCO2,-0.3
Cc1noc(C)c1S(=O)(=O)N(C)C[C@@H]1Oc2ccc(NC(=O)NC3CCCCC3)cc2CC(=O)N([C@@H](C)CO)C[C@H]1C,-0.4
COc1ccc(S(=O)(=O)Nc2cccc3c2O[C@H](CN(C)Cc2ccc4c(c2)OCO4)[C@H](C)CN([C@H](C)CO)C3=O)cc1,0.3
C[C@@H]1CN([C@@H](C)CO)C(=O)Cc2cc(N(C)C)ccc2O[C@H]1CN(C)S(=O)(=O)c1cn(C)cn1,-0.6
COc1ccc(S(=O)(=O)Nc2ccc3c(c2)C(=O)N([C@@H](C)CO)C[C@@H](C)[C@@H](CN(C)C(=O)C2CCCCC2)OCCCC[C@H](C)O3)cc1,-0.1
C[C@@H]1CN([C@@H](C)CO)C(=O)c2cc(NS(=O)(=O)c3ccc(F)cc3)ccc2O[C@@H](C)CCCCO[C@@H]1CN(C)C(=O)c1ccccc1,-1.7
O=C1O[C@@H](c2ccccc2)[C@@H](c2ccccc2)N2[C@@H](c3ccc(O)cc3)[C@]3(C(=O)Nc4ccccc43)[C@@H](C(=O)NC[C@H](O)c3ccccc3)[C@H]12,0.8
Cc1noc(C)c1S(=O)(=O)Nc1ccc2c(c1)C(=O)N([C@@H](C)CO)C[C@H](C)[C@H](CN(C)C(=O)Nc1ccccc1)O2,0.9
Cc1ccc(S(=O)(=O)N(C)C[C@@H]2OCCCC[C@H](C)Oc3ccc(NS(=O)(=O)c4ccc(F)cc4)cc3C(=O)N([C@H](C)CO)C[C@H]2C)cc1,-0.1
COc1ccc(CN(C)C[C@H]2Oc3ccc(NC(=O)Nc4cccc5ccccc45)cc3CC(=O)N([C@H](C)CO)C[C@H]2C)cc1,1.8
Cc1noc(C)c1NC(=O)Nc1ccc2c(c1)C(=O)N([C@@H](C)CO)C[C@@H](C)[C@H](CN(C)C(=O)NC1CCCCC1)OCCCC[C@@H](C)O2,1.1
Cc1noc(C)c1NC(=O)Nc1ccc2c(c1)C(=O)N([C@@H](C)CO)C[C@@H](C)[C@@H](CN(C)Cc1ccncc1)O2,1.3
C[C@@H]1CCCCO[C@H](CN(C)Cc2ccc3c(c2)OCO3)[C@@H](C)CN([C@H](C)CO)C(=O)c2cc(NS(=O)(=O)c3cccs3)ccc2O1,0.5
Cc1noc(C)c1NC(=O)Nc1ccc2c(c1)CC(=O)N([C@H](C)CO)C[C@H](C)[C@@H](CN(C)S(=O)(=O)c1cccs1)O2,0.5
